Screens deposited in PubChem BioAssay by PCMD.
Biofilm kill mix: clotrimazole potentiators killing C. albicans biofilm, primary screen, 4-compound mixtures | C. albicans biofilm persisters + clotrimazole, fluorescence viability; primary screen in compound mixtures of four per well | inhibition, % at 7.6 µM | 120,000 tested, 0.02% active | AID 1242, 2008;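 active = inhibition above 30.3% in the primary screen of four-compound pools, then above 30% when the compound was retested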;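 note: compounds exposed to preformed 24 h biofilms for 48 h; the number belongs to the whole pool; some results filed as inactive read as strong as hits; inactives centre near 12; 0% = biofilm with clotrimazole alone and 100% = kill control; retested singly at about 60 µM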
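Test system: C. albicans CAF4-2 wild-type biofilms; buffer or medium: RPMI/MOPS medium, pH 7.0; schedule: 24 h biofilm formation, then 48 h compound exposure, 37 °C; detection: Alamar Blue fluorescence; measure: percent inhibition of biofilm viability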
* marks the source's active call; other numbers are inactive results.

SMILES | Biofilm kill mix
O=C(/C=C/c1ccc(S(=O)(=O)N2CCOCC2)cc1)N(CCO)Cc1ccccc1 | 12
CC(C)Oc1cccc(C(=O)Nc2ccc(Br)cc2F)c1 | 7
Cc1ccc(NC(=O)C2CCCN(S(=O)(=O)c3c(C)noc3C)C2)cc1 (centres undefined) | 15
CCCCC1(CC(=O)OC)C(=O)N(c2ccccc2)N(c2ccccc2)C1=O | 20
Cc1c(C(=O)C(=O)NCCC2=CCCCC2)c2ccccc2n1C | 41
Cc1ccc(S(=O)(=O)N/N=C/c2cc(Br)ccc2O)cc1 | -1
OC(CNCC(c1ccc(Cl)cc1Cl)c1c[nH]c2ccccc12)c1ccccc1 (centres undefined) | 7
Cc1ccc(NC(=O)CN2C(=O)NC(C)(c3ccc(Cl)cc3)C2=O)cc1S(=O)(=O)N1CCOCC1 (centres undefined) | 15
CCCCn1ccnc1C | 22
COc1ccccc1N1CCN(C(=O)c2ccccc2NC(=O)C2CCCCC2C(=O)O)CC1 (centres undefined) | 10
COc1ccc(N(C(C)C(=O)Nc2ccc(S(=O)(=O)N3CCOCC3)cc2)S(C)(=O)=O)cc1 (centres undefined) | 15
CC1CCCC(NC(=O)COC(=O)[C@@H](NC(=O)c2ccco2)C(C)C)C1C (some centres undefined) | 0
O=C(c1ccc(F)cc1)C1CCN(C(=S)NCC2CCCO2)CC1 (centres undefined) | 12
Cc1onc(-c2ccccc2)c1C(=O)c1c[nH]c(C(=O)NCc2ccncc2)c1 | 14
COc1cc(C2Nc3ccccc3NC3=C2C(=O)CC(c2ccc(OC)c(OC)c2)C3)ccc1O (centres undefined) | 14
COC(=O)C(CCCN1C(=O)c2ccccc2C1=O)(NC(C)=O)c1nnn(C)n1 (centres undefined) | 11
O=C(CCC(=O)c1ccc(F)cc1)Nc1cccc(C(F)(F)F)c1 | 15
O=C1CSC(c2cccnc2)N1c1cccc(Cl)c1 (centres undefined) | 15
Cn1c(=O)c2c(ncn2CC(=O)N/N=C/C=C/c2ccccc2[N+](=O)[O-])n(C)c1=O | 21
Cc1cccc(CSc2nc3c(c(=O)[nH]2)CCCC3)c1 | 16
COC(=O)CC1C(=O)NCCN1C(=O)Nc1ccc(Cl)c(Cl)c1 (centres undefined) | 19
O=C(NC(=S)Nc1ccccc1Cl)c1cnn2c(C(F)(F)F)cc(C(F)(F)F)nc12 | 13
Cc1ccc(-n2nc3c(c2NC(=O)/C=C\c2ccc4c(c2)OCO4)CSC3)c(C)c1 | 5
O=[N+]([O-])c1ccccc1NCCOc1ccccc1 | 17
Cc1ccc(NC(=O)CSc2nnc(CN3CCOCC3)n2C)cc1C | 12

An excerpt of these results, tab-delimited:
SMILES	Biofilm kill mix
COC(=O)C(CCCN1C(=O)c2ccccc2C1=O)(NC(C)=O)c1nnn(C)n1 (centres undefined)	11
O=C(CCC(=O)c1ccc(F)cc1)Nc1cccc(C(F)(F)F)c1	15

Further compounds
SMILES | Biofilm kill mix
CN(NC1OC(=O)c2ccccc21)c1ccccc1[N+](=O)[O-] (centres undefined) | 17
CCCCOP(=O)(OCCCC)C(Nc1ccccc1)c1ccc2c(c1)OCO2 (centres undefined) | 23
COc1ccc(S(=O)(=O)Nc2ccccc2Cl)cc1NC(C)=O | 2
CCOc1ncccc1C(=O)OCC(=O)c1cccc(Br)c1 | 6
CCN(CC)S(=O)(=O)c1ccc(OC)c(NC(=O)C2CC(=O)N(c3ccc(C)cc3)C2)c1 (centres undefined) | 8
CC(=O)Nc1cccc(/C(C)=N/NC(=S)NC(C)C)c1 | 4
O=C(NC1CCCCC1)c1ccc(Cl)c(NC(=O)c2ccccc2F)c1 | 7
Nc1c(C(=O)Nc2ccc(F)cc2)nnn1-c1cccc(C(F)(F)F)c1 | 13
Cc1ccc(C)c(NCC(=O)NNC(=S)Nc2ccccc2)c1 | 18
CCCSc1ccc(-c2nn(-c3ccccc3)cc2/C=C(/C#N)C(=O)N2CCOCC2)cc1 | 8
Fc1ccc2c(c1)C(c1ccncc1)=NNC(c1ccccc1)=N2 | 5
O=C(Nc1ncccn1)C12CC3CC(CC(C3)C1)C2 | 15
COc1ccc(C)cc1NC(=O)C1COc2ccccc2O1 (centres undefined) | 20
C=C(C)[C@@H]1CC=C(CN2CCC(N3CCC(C(=O)N4CCCC4)CC3)CC2)CC1 | 13
N#CCNc1ccc([N+](=O)[O-])cc1C#N | 5
Nc1cc(-c2ccccc2)ccc1O | 16
O=C(NC1CC1)c1ccc(-c2ccccc2)cc1 | 19
S=C(NCC1CCCO1)N1CCN(c2nc(-c3ccc(Cl)cc3)cs2)CC1 (centres undefined) | -8
CCCCn1c(=O)c(CCC(=O)OCC(=O)NC(=O)NCCC(C)C)nc2ccccc21 | 3
COC(=O)C(Cc1ccc(O)cc1)NC(=O)C12CC3CC(CC(C3)C1)C2 (centres undefined) | 9
CCCn1c(SCC(=O)NCCc2ccccc2)nnc1-c1ccco1 | 8
O=C(Nc1cccc(NC(=O)c2ncn[nH]2)c1)c1cccc(Cl)c1 | 4
CN(C)/C=N/c1nc2nccc(-c3ccc(F)cc3)n2n1 | 0
CC(=O)NCc1ccc(S(=O)(=O)N/N=C/c2ccc(N(C)C)cc2)cc1 | 5
CCOc1ccc(/C=C2/SC(=O)NC2=S)cc1 | 9

Other records
SMILES | Biofilm kill mix
O=C(c1c[nH]c(C(=O)C(Cl)(Cl)Cl)c1)c1ccccc1Br | 8
COC(=O)c1cccc(N(C(=O)c2ccco2)C(C(=O)NC2CCCC2)c2ccco2)c1 (centres undefined) | 8
Cc1cc(C)cc(N=Cc2[nH]c3ccc(Br)c(Cl)c3c2O)c1 | 15
Fc1cccc(CSc2nnc3c(n2)[nH]c2ccccc23)c1 | 21
COc1cc(/C=N/Nc2nc(=O)[nH]nc2C)cc(OC)c1O | 15
Cc1ccc(C)c(N2CCN(C(=S)Nc3ccc4nc(N5CCN(C)CC5)cc(C)c4c3)CC2)c1 | 19
O=C(O)/C=C/C(=O)Nc1ccc(Cc2ccc(NC(=O)/C=C/C(=O)O)cc2)cc1 | 16
COc1cccc(-c2cc(C(=O)NCCCn3ccnc3)c3ccccc3n2)c1 | 13
Cc1cc(NS(=O)(=O)c2ccc(N3C(=O)C4C5C=CC(C5)C4C3=O)cc2)nc(C)n1 (centres undefined) | 17
COc1ccc(-c2cc(CCCC(=O)NCCc3ccccc3)no2)cc1 | 7
CCCCOC(=O)N1CCOCCOCCOCC1 | 17
COc1cccc(C(Nc2ccccn2)c2c(NC(=O)c3ccco3)sc(C)c2C)c1 (centres undefined) | 16
CCOC(=O)c1ccccc1NC(=O)CSc1nnnn1C | 21
CCc1cc[n+](/C(C(=S)Nc2cccc(C)c2)=C(/[O-])c2ccc(C)c([N+](=O)[O-])c2)cc1 | 18
O=C(NC1CC1)C1=C[C@@H](C2CC2)C[C@@H](OCc2ccc(CO)cc2)O1 | 14
CC(=O)c1n[nH]nc1Nc1nc(C)cc(C)n1 | 8
CCN(CC)S(=O)(=O)c1ccc(N2CCOCC2)c(NC(=O)c2cccc(C#N)c2)c1 | 14
CC(C)CC(=O)Nc1ccc(-c2nc3ccccc3c(=O)o2)cc1 | 4
CCCN(CCC)CC(C)(C)NS(=O)(=O)c1ccc(Cl)cc1 | 5
Nc1nn(S(=O)(=O)c2ccccc2)cc1-c1cccc([N+](=O)[O-])c1 | 12
O=C(/C=C/c1ccccc1[N+](=O)[O-])OCC(=O)c1ccccc1 | -2
CC(C)Sc1sc(C(=O)O)c(-c2ccc(Cl)cc2)c1C#N | 21
O=S(=O)(Nc1ccc(N2CCOCC2)cc1)c1ccc(F)cc1 | 1
O=C(COC(=O)CCc1nc2ccccc2s1)NC(=O)NCc1ccco1 | -7
O=C(Oc1cncc(Cl)c1)c1ccco1 | 8

3 compounds drawn at random from those above, as already listed:
SMILES | Biofilm kill mix
CCCCn1ccnc1C | 22
Cc1cccc(CSc2nc3c(c(=O)[nH]2)CCCC3)c1 | 16
Cc1ccc(S(=O)(=O)N/N=C/c2cc(Br)ccc2O)cc1 | -1

Following part.
SMILES | Biofilm kill mix
COC(=O)c1c(NC(=O)c2ccc(C)cc2)csc1C | 17
CCc1ccc(OCC(=O)NC(NC(=S)Nc2ccc(Cl)cc2)C(Cl)(Cl)Cl)cc1 (centres undefined) | 11
Cc1ccc(C(=O)N2CCc3ccccc32)cc1NC(=O)c1ccco1 | -7
Cc1cc2c3ccccc3ncn2n1 | 17
COc1ccc([N+](=O)[O-])cc1NC(=O)/C=C/C(=O)O | 11
O=C(CCC(=O)Nc1ccccc1)NNC(=O)COc1ccccc1 | -6
CN1CCc2c(sc(NC(=O)c3ccc(S(=O)(=O)N4CCc5ccccc54)cc3)c2C(N)=O)C1 | 18
COc1ccc(-n2c(=O)c3c4c(sc3n3c(=S)[nH]nc23)CCC4)cc1 | 10
COc1ccc(C(C)=O)cc1CSc1nnc(-c2ccncc2)n1C | 8
O=C(CSC(=S)N1CCCCC1)Nc1ncc2c(n1)CCCC2=O | 4
CCC(=O)N1N=C(c2ccc(Cl)cc2)CC1c1ccco1 (centres undefined) | 11
S=C(NCCc1ccccn1)NC1CC2CCC1C2 (centres undefined) | 15
O=c1c2cc(NC(=S)NC3CCN(Cc4ccccc4)CC3)ccc2nc2n1CCCCC2 | 20
CCCCN(c1ccccc1)S(=O)(=O)c1cccc(C(=O)O)c1 | 26
O=C(NCCN1C(=O)S/C(=C\c2ccc(F)cc2)C1=O)C1CCN(S(=O)(=O)c2cccs2)CC1 | 8
CC(C)(CNC(=O)C1CCCN1C(=O)c1cccs1)N1CCOCC1 (centres undefined) | 15
CCC(=O)Nc1ccc(C(=O)N/N=C/c2ccc([N+](=O)[O-])cc2)cc1 | 18
C=CCN=C1NN=C(c2cc(C)n(CC=C)c2C)CS1 | 19
CCOC(=O)CC(NC(=O)c1cc2cc(Cl)cc(Cl)c2oc1=O)c1cccc([N+](=O)[O-])c1 (centres undefined) | 7
CCCNC(=O)Nc1ccc(NC(C)=O)cc1 | 11
CCOC(=O)c1c(C)[nH]c(C(=O)Nc2ccc(C)c(Cl)c2)c1C | 4
Cc1ccc(C(=O)C(C)[n+]2cccc(C(N)=O)c2)cc1 (centres undefined) | 14
c1ccc(-c2ccc3c(c2)NCCN3)cc1 | 19
CCCCCCn1c(CN2CCC(C)CC2)nc2c1c(=O)n(C)c(=O)n2C | 9
CC(=O)c1c(C)nc(-c2ccc(OCC(=O)Nc3cccc(C)c3C)cc2)n1O | 13

The list continues.
SMILES | Biofilm kill mix
Cc1ccc(-c2cc(C(F)F)n3ncc(C(=O)N4CCCc5ccccc54)c3n2)cc1 | 9
CCCC(C)NC(=O)COC(=O)c1cccc(NS(C)(=O)=O)c1 (centres undefined) | 9
CC(C)C(NC(=O)C(NC(=O)C1OC2OC(C)(C)OC2C2OC(C)(C)OC12)C(C)C)C(=O)O (centres undefined) | 2
O=C(C(c1ccccc1)c1ccccc1)N1CCN(CCN2C(=O)c3cccc4cccc(c34)C2=O)CC1 | 22
O=[N+]([O-])c1ccc(Cl)c(S(=O)(=O)n2ccnc2)c1 | 23
C/C(=N\NC(=O)c1ccc(Cn2cc(Br)cn2)o1)c1cccc(NC(=O)C(C)(C)C)c1 | 7
Nc1nc2c(ncn2COC(CO)CO)c(=O)[nH]1 | 5
CC(=O)NS(=O)(=O)c1ccc(N)cc1 | 10
O=C(CSCc1ccc(Br)cc1)N1CCCC1 | 8
O=C(c1nnc(Cc2ccc(Cl)cc2)o1)N1CCOCC1 | 8
N#CCc1nn2c3c(cnc2c1C#N)C(=O)CCC3 | -8
CCOC(=O)C(NC(=O)c1ccccc1)(Nc1cccc(C)n1)C(F)(F)F (centres undefined) | 1
CC(C)C(=O)NC(NC(=S)NC1CCS(=O)(=O)C1)C(Cl)(Cl)Cl (centres undefined) | 14
COC(=O)N/N=C/c1cc(OC)c(O)c([N+](=O)[O-])c1 | 16
Cc1cc2ccccc2n2c(SCC(=O)N3CCOCC3)nnc12 | 11
CN1C(=O)c2ccc(N(C)C)cc2C1=O | 13
CCOC(=O)N1CCN(C(=O)c2ccc(-n3c(C)ccc3C)cc2)CC1 | 15
Cc1ccc(C)c(NC(=O)c2cnc3n(c2=O)CCS3)c1 | 21
O=C(O)C1CSC(c2coc3ccccc3c2=O)N1 (centres undefined) | 12
COc1ccc(C2(O)CCN(CC(=O)Nc3nc(-c4ccccc4)cs3)CC2)cc1 | 6
Cc1ccc(/C=N/Nc2cccc(C(=O)O)c2)s1 | 8
Cc1ncc(CN2CCC(CO)(CCc3ccccc3)CC2)s1 | 14
O=C(O)c1cccnc1Nc1ccc(Cl)cc1 | 6
Cc1cccc(OCCC(=O)Nc2ccc(F)c(Cl)c2)c1 | 10
CCN1CCN(c2ccc(NC(=O)CCc3c(C)nc4c(-c5ccc(F)cc5)c(C)nn4c3C)cc2)CC1 | 13
c1ccc(CSc2nnc3ccc(-c4cccs4)nn23)nc1 | 1
Cc1ccccc1OCC(=O)N1N=C(c2cccnc2)CC1(O)C(F)(F)F (centres undefined) | 21
C#CCNC(=O)C1=C[C@H](C)[C@@H](CCCO)[C@H](OCC)O1 | 21
S=c1[nH]nc(C2CCCCC2)n1/N=C/c1ccccn1 | -3

4 of the compounds above, field by field:
compound: CCOC(=O)C(NC(=O)c1ccccc1)(Nc1cccc(C)n1)C(F)(F)F (centres undefined)
  Biofilm kill mix = 1
compound: CC(C)C(=O)NC(NC(=S)NC1CCS(=O)(=O)C1)C(Cl)(Cl)Cl (centres undefined)
  Biofilm kill mix = 14
compound: COC(=O)N/N=C/c1cc(OC)c(O)c([N+](=O)[O-])c1
  Biofilm kill mix = 16
compound: Cc1cc2ccccc2n2c(SCC(=O)N3CCOCC3)nnc12
  Biofilm kill mix = 11

The list is partial; rates above refer to the full screens.
